Beta apoptosis – blocks beta cell apoptosis; protection from apoptosis, % (no concentration beside the values); INS-1E cytokine-induced death, ATP luminescence, 48 h; percent of positive-control rescue, neutral wells zero; 300,000 tested, 0.8% active; AID 435005;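 active = all replicates at 75% or more, or half of them and the mean; inconclusive = half reach 75% but not the mean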;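 note: 0% = cytokine-treated negative control wells and 100% = positive control rescue; higher means more ATP so stronger rescue from cytokine killing; wells of about 40 µL received 100 nL stock; the first replicate is given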
A1 inh – inhibitors of the anti-apoptotic protein A1, read as caspase activation; MEF A1-2A-BIM cells, Caspase-Glo 3/7 luminescence, 3 h; percent of clofoctol response, vehicle zero; caspase activation, % (concentration not given with the values); 330,000 tested, 0.066% active; AID 2462;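 active = over half of replicate activation scores above 10%, or exactly half above 10 with the replicate mean above 10; inconclusive = replicate mean below 10 yet half the replicates above 10; inactive = over half of replicates below 10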;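 note: wells of about 30 µL received 50 nL stock; many hits fall short of the cut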
RanGTP-Imp inh – inhibitors of RanGTP-importin-beta interaction, primary screen, biochemical, FRET, CFP-Ran, YFP-importin-beta, homogeneous; 300,000 tested, 1.1% active; AID 2216; inhibition, % (no concentration beside the values); cell-free CFP-Ran/YFP-importin-beta FRET ratio;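 active = most replicates above 15%; inconclusive = exactly half above 15%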;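 note: 0% = DMSO wells and 100% = Ran loaded with GDP instead of GTP; wells of about 40 µL received 100 nL stock; the first replicate is given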
UCH37 DUB inh – human UCH37 deubiquitinating enzyme inhibition. Q9Y5K5. purified proteasome/UCH37, Ub-AMC cleavage fluorescence. inhibition, % (test concentration not listed). 330,000 tested, 0.33% active. AID 588478;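 active = mean of two replicates above 20%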;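 note: 0% = compound-free wells with enzyme and 100% = wells lacking proteasome; stock transfer was 100 nL into about 20 µL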
Target sequence (Q9Y5K5 whole entry, looked up): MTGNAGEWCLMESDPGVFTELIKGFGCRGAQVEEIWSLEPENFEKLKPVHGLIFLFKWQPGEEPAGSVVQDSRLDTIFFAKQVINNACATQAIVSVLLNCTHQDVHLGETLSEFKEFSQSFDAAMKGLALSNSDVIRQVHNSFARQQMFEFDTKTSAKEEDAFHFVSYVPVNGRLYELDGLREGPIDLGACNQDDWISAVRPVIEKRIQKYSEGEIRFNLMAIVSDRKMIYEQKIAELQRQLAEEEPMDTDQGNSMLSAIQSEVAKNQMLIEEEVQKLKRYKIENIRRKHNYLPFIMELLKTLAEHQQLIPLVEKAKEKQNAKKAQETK
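Reagent: Ub-AMC substrate; assay system: Proteasome-associated human UCH37 deubiquitinase; controls: no-proteasome and no-compound wells; read-out: % inhibition of Ub-AMC cleavage fluorescence; timing: 30 min preincubation with enzyme, 25 min cleavage at room temperature; signal: AMC fluorescence from Ub-AMC cleavage, excitation 355 nm, emission 460 nm; buffer or medium: Tris-HCl pH 7.4 plus ovalbumin, ATP-MgCl2, DTT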
T cruzi repl – T. cruzi replication inhibition. T. cruzi beta-gal in NIH3T3, luminescence, 90 h. inhibition, % (concentration not given with the values). 300,000 tested, 1.4% active;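 active = mean inhibition across valid replicates above about 55%, limit read from the data; inconclusive = mean below that limit but half or more replicates reach it; inactive = mean below it, under half of replicates reach it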;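 note: signal also drops with host cell toxicity which is not excluded here; 0% = plate median of DMSO wells and 100% = zero luminescence signal; higher percent means less beta-gal luminescence so fewer parasites; stock transfer was 50 nL into about 50 µL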
Calb FLC – affects C. albicans growth with fluconazole; 300,000 tested, 0.57% active; C. albicans CaCi-2 (fluconazole-resistant clinical isolate) + fluconazole, Alamar Blue growth, 48 h; AID 1979; growth inhibition, % (test concentration not listed);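 active = most replicates above 75%; inconclusive = exactly half above 75%; inactive = most below 75%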;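 note: all wells also contain fluconazole at 8 µg/ml as a sub-toxic cotreatment; 0% = median of DMSO wells and 100% = median of geldanamycin control wells; wells of about 8 µL received 7.5 nL stock; the first replicate is given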
LANA-H2A inh – blocks KSHV LANA binding to histone H2A/H2B; inhibition, % (test concentration not listed); cell-free LANA-H2A/H2B peptide, fluorescence polarization; AID 2629; 320,000 tested, 0.6% active; Q9QR71; in the data active = inhibition mostly above about 10%, no sharp cut-off; inactive = mostly below about 6.7%;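 note: stock transfer was 7.5 nL into about 10 µL; 0% = median of vehicle wells and 100% = median of positive control wells; one replicate is shown; the record names a cut of 25% in any replicate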
B2AR ag – human beta-2 adrenergic receptor agonism by FAP | Am2.2-beta2AR cells, FAP receptor internalization, flow cytometry; reference of the scale not given here | response, % (no concentration beside the values) | 340,000 tested, 0.43% active;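 active = response above a set limit, near 3 SD of response in nonfluorescent compounds, cut at about 42% in these data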;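 note: stock transfer was 100 nL into about 11 µL; a reference agonist was the positive control; negative values mostly stem from fluorescent compounds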
Target sequence (P07550 whole entry, looked up): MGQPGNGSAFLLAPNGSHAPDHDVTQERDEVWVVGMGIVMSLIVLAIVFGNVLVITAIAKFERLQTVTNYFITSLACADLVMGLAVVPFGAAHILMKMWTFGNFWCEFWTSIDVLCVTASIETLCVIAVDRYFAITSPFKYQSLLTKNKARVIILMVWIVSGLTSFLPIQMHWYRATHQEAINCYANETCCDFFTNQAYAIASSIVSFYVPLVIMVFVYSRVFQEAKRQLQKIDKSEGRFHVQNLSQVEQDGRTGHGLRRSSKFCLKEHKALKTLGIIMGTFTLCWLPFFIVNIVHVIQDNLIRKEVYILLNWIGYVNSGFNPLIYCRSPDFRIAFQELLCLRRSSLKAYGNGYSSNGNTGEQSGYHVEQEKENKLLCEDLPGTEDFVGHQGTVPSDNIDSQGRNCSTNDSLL
An asterisk follows results filed as active; ? = inconclusive; / = no result given; & = joins results of further samples.

smiles	Beta apoptosis	A1 inh	RanGTP-Imp inh	UCH37 DUB inh	T cruzi repl	Calb FLC	LANA-H2A inh	B2AR ag
CCn1ccc(C(=O)Nc2c(C)nn(Cc3c(F)c(F)c(F)c(F)c3F)c2C)n1	/	0.3	1.0	3.2	-7.6	1.2	1.2	-5.4
Clc1cccc(Cl)c1CSc1cc2c(nn1)-c1ccccc1CC2	18.9	0.0	-1.2	3.6	34.1	11.6	-3.4	-1.9
COc1ccc(C(=O)Nc2ccnn2C2CCN(Cc3ccc4nonc4c3)CC2)cc1	-1.4	0.0	1.0	4.2	0.3	3.0	1.0	2.6
O=C(CSc1ncc(C(F)(F)F)cc1Cl)N1CCN(S(=O)(=O)c2ccc3ccccc3c2)CC1	22.5	0.9	2.7	1.8	?	14.6	-15.3	-0.3
COc1cc(/C=N/n2c(-c3ccc4c(c3)NC(=O)CO4)csc2=Nc2cccc(C)c2)ccc1O	1.9	-0.5	1.6	/	3.6	-6.2	6.9	5.0
Cc1nc(-c2ccc(NC(=O)/C=C\C(=O)O)cc2)cs1	-2.2	-1.4	1.1	0.1	-7.1	-7.7	4.2	-4.7
Cc1cc(C)nc(NC(=O)CN2C(=O)c3ccccc3C2=O)n1	-4.5	0.3	-2.2	-0.2	-25.3	-8.7	3.3	-3.9
O=C(O)CC1(CC(=O)Nc2cc(C(F)(F)F)cc(C(F)(F)F)c2)CCCCC1	2.4	-0.4	?	5.9	-0.5	4.1	4.8	1.3
COc1ccccc1-c1nc(-c2ccccc2)nc(N2CCN(C)CC2)c1C#N	-0.1	-0.7	?	5.7	50.8	-3.8	-1.3	1.5
COc1cc(NC(=O)c2ccccc2)c(OC)cc1NC(=O)CN1CCCCC1	-3.5	-1.0	-3.3	2.0	2.4	-0.6	-1.1	1.3
C/C(=N/NC(=O)c1ccc(Br)o1)c1cccc(NC(=O)c2ccc(C)o2)c1	-1.5	-0.6	-0.9	/	-24.4	14.8	-1.0	1.6
Cc1c(Br)c([N+](=O)[O-])nn1CC(=O)NCC1CCCO1 (stereo not given)	-1.4	0.4	-0.4	2.9	11.0	-10.9	3.4	-0.6
Cc1ccc2c(cnn2C(=O)CCC(=O)NC2CCCCC2)c1	0.2	0.4	2.1	2.2	-14.0	4.4	-4.7	-2.5
COc1ccc(S(=O)(=O)Nc2ccc3c(c2)OCO3)cc1OC	-4.5	0.8	1.7	3.7	1.6	1.2	7.1	-5.0
CC(=O)N1CCN(C(=S)c2ccc(N(C)C)cc2)CC1	-3.2	1.0	7.8	7.3	-19.4	-0.2	-6.7	1.4
O=C(NC(C(=O)NCCN1CCOCC1)C12CC3CC(CC(C3)C1)C2)C1CCCCC1 (stereo not given)	-2.9	-0.2	2.4	2.3	-10.1	10.3	-2.7	10.9
Cc1ccc(-c2csc3nnc(SCC(=O)Nc4nsc(-c5ccccc5)n4)n23)cc1	-2.3	1.1	2.4	0.1	9.3	-9.5	0.9	-11.2
O=C(COC(=O)c1ccc(Br)c(S(=O)(=O)N2CCOCC2)c1)NCCc1ccccc1	1.6	6.4	/	1.0	/	/	-1.3	9.9
CC(NC(=O)NC1CCCCC1)C(c1cccs1)N1CCN(Cc2ccccc2)CC1 (stereo not given)	-1.2	-0.2	-0.1	1.4	-2.3	4.9	-0.5	-3.5
Cc1ccc(OCC(=O)Nc2cc(-c3nn4c(C)nnc4s3)ccc2C)cc1	-2.8	0.1	0.2	4.3	-13.7	4.4	4.2	-2.4
CN(C)c1ccc(N=C/C=C2/N(C)c3ccccc3C2(C)C)cc1	/	/	-0.8	18.3	32.4	-10.9	/	-85.2
COc1ccccc1C1OC(c2cccc([N+](=O)[O-])c2)=NN1C(C)=O (stereo not given)	0.0	-0.2	10.4	5.7	-1.5	1.2	1.4	-4.2
O=C(Cc1cccc2ccccc12)N/N=C/c1ccncc1	0.1	0.4	-1.3	/	-10.1	-17.2	1.7	-4.6
COc1ccc(S(=O)(=O)N(C)CC(=O)NC2CCCC2)cc1Cl	-6.7	0.2	-0.6	0.9	6.6	30.1	-2.5	-3.5
CC(=O)NS(=O)(=O)c1ccc(NC(=O)c2cccc(OCc3c(C)noc3C)c2)cc1	-9.8	0.3	/	-3.4	/	/	-1.1	-2.4

Following part
smiles	Beta apoptosis	A1 inh	RanGTP-Imp inh	UCH37 DUB inh	T cruzi repl	Calb FLC	LANA-H2A inh	B2AR ag
C#CC(C)(C)NC(=O)c1ccccc1OC	1.5	0.4	-4.1	-2.3	10.0	-2.3	1.3	-0.2
COc1ccc(CCNC(=S)N2CCN(S(=O)(=O)c3ccc(Cl)cc3)CC2)cc1	-3.8	0.1	2.0	3.9	-6.4	-5.3	7.2	-7.7
CCN(c1ccc(NC(=O)c2cccc(S(=O)(=O)N3CCN(C)CC3)c2)cc1)C(C)C	2.4	0.4	1.7	2.4	19.1	23.9	2.2	2.2
Cc1ccc(NC(=S)N(CCN(C)C)Cc2cccs2)cc1	-4.5	-0.5	2.7	4.2	-12.3	-12.7	1.1	-5.3
CCOCCn1c(CN(C)Cc2ccccc2)nc2c1c(=O)n(C)c(=O)n2C	-7.6	/	-2.8	2.5	7.1	-3.8	-1.3	-9.3
Cn1c(N)c(C(=O)CSc2nnc(Cc3cccs3)n2C2CC2)c(=O)n(C)c1=O	-1.9	-0.4	/	3.0	/	/	-5.3	2.3
O=C(Nc1ccc(S(=O)(=O)Nc2ncccn2)cc1)c1ccc(F)c(S(=O)(=O)N2CCOCC2)c1	-2.8	-0.5	1.8	0.9	-16.8	4.7	-1.2	5.8
Cc1cc(NC(=O)CSc2ccc3ccccc3c2)no1	-13.2	-1.8	-2.5	0.8	0.3	18.8	-1.8	2.0
COc1cc(C(=S)N2CCOCC2)cc(OC)c1OC(=O)c1ccc([N+](=O)[O-])cc1[N+](=O)[O-]	/	0.4	?	2.8	3.8	-0.5	-0.8	-1.1
COc1ccnc(Oc2ccccc2)n1	-10.7	-0.3	?	1.7	-2.9	-1.7	1.3	1.0
C1CC1Cc1noc(CN2CCN(CC3CC3)CC2)n1	0.3	0.5	-1.5	-2.0	1.1	-14.3	1.8	6.8
COc1ccc(Cl)cc1-c1nc(SCC(=O)NC2CCCC2)n[nH]1	2.3	-0.3	/	-0.5	/	/	-3.0	-7.6
OC(COc1cccc(OCC(O)CN2CCOCC2)c1)CN1CCOCC1 (stereo not given)	-8.2&-4.1	-0.9&-0.2	4.2&2.1	0.4&4.3	-43.8&-16.8	9.1&4.1	-0.6&-5.8	22.3&-4.9
CC1CCCC(C)N1C(=O)COC(=O)C1CCN(S(=O)(=O)c2ccc3c(c2)OCCO3)CC1 (stereo not given)	-1.9	0.2	-2.4	2.5	1.9	-4.1	/	1.3
COc1cc(CN2CCC(CO)(CCOc3ccccc3)CC2)cc(OC)c1OC	0.0	-0.6	-2.1	1.1	2.5	-10.9	2.0	-7.3
Cc1nc2c3ccccc3nc(NNC(=O)CCC(=O)N3CCN(c4ccc(F)cc4)CC3)n2n1	-4.8	-0.6	-1.4	2.5	-7.7	-11.6	8.6	4.9
CCN1C(=O)C(F)(CC)C(=O)c2ccccc21 (stereo not given)	-8.1	0.1	3.0	3.1	-2.5	-0.9	-0.7	-9.1
O=C(Nc1ccc(S(=O)(=O)Nc2ccccc2)cc1)C1COc2ccccc2O1 (stereo not given)	-7.7	0.0	1.4	2.0	-3.2	?	4.3	3.1
CCCCCCCC(=O)NNC(=O)c1c(O)c2ccccc2[nH]c1=O	3.6	0.1	3.4	2.8	-5.6	16.0	-0.5	0.7
CCOC(=O)c1ccc2c(c1)N(C)C(=O)c1ccccc1S2	-3.8	-0.7	-1.2	5.6	3.0	-5.1	3.6	6.1
CCCCc1c(C)nc2nc(SCc3ccc(Cl)cc3)[nH]n2c1=O	-0.9	?	?	4.2	2.3	15.8	3.3	16.4
CCc1cccc2c(C(=O)CSc3nnc(C4CC4)o3)c[nH]c12	-0.3	0.2	/	-0.3	/	/	-3.7	3.6
Cc1c(Cl)cccc1NC(=O)Nc1ccccc1C(N)=O	-3.3	-0.1	5.1	-2.0	-115.8	-0.7	-0.5	1.4
CN(C)S(=O)(=O)c1ccc(C(=O)NCCC(=O)N2CCCC2)cc1	1.6	-0.2	0.8	0.1	-4.5	22.4	-3.4	-0.9
CCC1=NC(c2ccc(Br)cc2)N(O)C1(C)C (stereo not given)	-1.6	1.4	4.1	1.1	5.9	-5.9	0.5	5.3

(continued)
Order of values – Beta apoptosis | A1 inh | RanGTP-Imp inh | UCH37 DUB inh | T cruzi repl | Calb FLC | LANA-H2A inh | B2AR ag
- CC(=O)Cc1nsc(NC(=O)c2ccc(COc3ccccc3)o2)n1
 : / | 0.8 | 5.6 | 4.6 | -27.0 | 31.5 | -0.7 | -1.7
- Cc1ccc(CN(C)C(=O)c2c(C)nn(-c3ccccc3)c2C)cc1
 : -5.0 | 0.5 | 5.0 | 2.0 | 4.9 | 6.9 | 1.6 | -7.8
- Nc1nnc(SCCCC(=O)c2ccc(Br)cc2)s1
 : -4.6 | 0.3 | -4.6 | 1.1 | -5.3 | -51.7 | 0.7 | 7.0
- Cc1cccc(-n2c(SCC(N)=O)nc3c(c2=O)C2(CCCCC2)Cc2ccccc2-3)c1
 : 8.3 | -0.6 | ? | 0.6 | 13.1 | 2.2 | 5.9 | -2.0
- O=C(NCc1cccnc1)C1CC(=O)N(c2ccc(Cl)cc2)C1 (stereo not given)
 : -2.2 | 2.1 | 2.2 | 5.0 | -11.9 | -16.8 | -2.3 | 4.0
- CC(C)NC(=O)Nc1cccc2c1O[C@H](CN(C)C(=O)NC1CCCCC1)[C@@H](C)CN([C@H](C)CO)C2=O
 : 11.4 | -1.2 | / | 0.6 | / | / | -4.3 | 0.6

Entries listed so far containing a COOH group, in the order listed:
Order of values – Beta apoptosis | A1 inh | RanGTP-Imp inh | UCH37 DUB inh | T cruzi repl | Calb FLC | LANA-H2A inh | B2AR ag
- Cc1nc(-c2ccc(NC(=O)/C=C\C(=O)O)cc2)cs1
 : -2.2 | -1.4 | 1.1 | 0.1 | -7.1 | -7.7 | 4.2 | -4.7
- O=C(O)CC1(CC(=O)Nc2cc(C(F)(F)F)cc(C(F)(F)F)c2)CCCCC1
 : 2.4 | -0.4 | ? | 5.9 | -0.5 | 4.1 | 4.8 | 1.3
